RGS16-Gao = modulators of RGS16 binding to Galphao, primary screen, biochemical, human proteins, multiplexed bead flow cytometry | AID 1441, 2008 | Regulator of G-protein signaling 16 (Homo sapiens) + Guanine nucleotide-binding protein … | binding response (% of control), % at 10 µM | 0.38% of 220,000 active | bead-based flow cytometry RGS16-Galphao binding, fluorescence; actives lie on both sides;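 active means below 25% or above 175%, edge rows of some plates excepted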;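 further: Galphao activated by GDP with aluminum fluoride before binding; 100% = wells without compound and 0% = beads without RGS; some results beyond the cut were filed as inactive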
Insulin prom inh = inhibitors of insulin promoter-driven GFP, primary screen, imaging, TRM-6 cells (human fetal islet line), eGFP reporter, cell count; reporter expression induced with tamoxifen; inhibition, % at 2 µM; 0.9% of 130,000 active;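 active means inhibition above the mean plus 3 SD, with well images judged a real hit on visual review, cut at about 60% in these data, passing the limit was not always enough; inconclusive means inhibition over the cutoff but images rejected on review; inactive means inhibition not above the cutoff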
GALR2 ag = GALR2 receptor agonists, primary screen, cell-based; 0.48% of 140,000 active; GALR2-expressing cells, agonist activation read-out; Galanin receptor type 2 (Homo sapiens), O43603; activation, %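 (tested at 5 µM)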; AID 803, 2007;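 active means above mean plus 3 SD of all compounds, about 5% in these data, not always enough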;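 further: 0% = vehicle buffer wells and 100% = reference agonist at full effect; tested in CHO reporter cells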
HSV replic up = enhancers of HSV replication in host cells, fold increase, host cell viability. maximum fold increase. HSV replication augmentation in cells. 0.005% of 220,000 active. AID 1956, 2009;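 active means peak rise of 1.5-fold or more in the series; inconclusive means self-fluorescent or not available for retest; tested in PC3 cells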;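 further: first round at 10 µM; read as green reporter fluorescence; hits show the peak of a series up to 25 µM; 1 = signal of infected wells without compound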
PKD1 inh = inhibitors of human PKD1 kinase, biochemical, fluorescence polarization; Serine/threonine-protein kinase D1 (Homo sapiens), Q15139; AID 797, 2007; 0.056% of 200,000 active; PKD1 kinase fluorescence polarization assay; inhibition, %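 (about 10 µM by stock and volumes)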;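 active means inhibition of 50% or more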;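 further: controls were vehicle for no effect and a reference inhibitor for full effect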
Target sequence (Q15139 whole entry, looked up): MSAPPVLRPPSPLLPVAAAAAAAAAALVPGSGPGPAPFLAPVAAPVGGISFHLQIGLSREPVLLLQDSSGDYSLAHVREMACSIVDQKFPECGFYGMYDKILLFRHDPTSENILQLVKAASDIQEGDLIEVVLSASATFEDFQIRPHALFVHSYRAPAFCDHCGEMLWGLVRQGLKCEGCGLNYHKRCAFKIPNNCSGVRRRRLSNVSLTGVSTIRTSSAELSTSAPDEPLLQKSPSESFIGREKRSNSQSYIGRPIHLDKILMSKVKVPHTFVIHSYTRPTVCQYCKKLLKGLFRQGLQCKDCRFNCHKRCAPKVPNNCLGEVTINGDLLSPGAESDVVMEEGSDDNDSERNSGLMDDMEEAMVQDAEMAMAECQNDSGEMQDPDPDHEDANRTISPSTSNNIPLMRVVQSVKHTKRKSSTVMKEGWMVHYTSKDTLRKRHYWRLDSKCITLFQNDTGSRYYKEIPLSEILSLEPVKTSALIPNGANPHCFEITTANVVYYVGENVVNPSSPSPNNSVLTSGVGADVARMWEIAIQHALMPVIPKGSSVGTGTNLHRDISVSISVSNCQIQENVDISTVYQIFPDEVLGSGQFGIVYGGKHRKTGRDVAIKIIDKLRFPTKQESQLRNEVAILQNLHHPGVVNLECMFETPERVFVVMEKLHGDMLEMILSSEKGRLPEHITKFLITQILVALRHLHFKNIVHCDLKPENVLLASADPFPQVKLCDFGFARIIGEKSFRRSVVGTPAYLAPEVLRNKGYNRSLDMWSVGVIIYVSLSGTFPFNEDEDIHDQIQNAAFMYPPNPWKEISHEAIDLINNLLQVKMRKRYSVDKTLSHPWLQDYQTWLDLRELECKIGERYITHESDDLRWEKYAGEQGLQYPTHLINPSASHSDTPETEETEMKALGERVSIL
Insulin prom inh cell count = second read-out of Insulin prom inh, no call of its own (marks repeat the call); normalized cell count, %; measured here: cell count, toxicity; reference of the scale not given here;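 cells exposed to compound for 48 h; stained nuclei by imaging scaled within each plate; lower means fewer cells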
HSV replic up primary fold = recorded beside HSV replic up, whose call it bears; fold increase; compound at 10 µM; measured here: primary screen fold increase 10 uM; tested in PC3 cells;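 GFP signal in the first replicate; 1 = infected wells without compound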
* hit, by the source's call; i = inactive; ? = inconclusive; / = no result given.

Structure	HSV replic up primary fold	GALR2 ag	HSV replic up	Insulin prom inh	Insulin prom inh cell count	PKD1 inh	RGS16-Gao
Cc1ccc(-c2cc(-c3ccccc3O)nc(N/N=C/c3cccnc3)n2)cc1	0.76	-2.0	i	/	/	-6	103
COc1ccccc1/C=C1\SC(=S)N(N2C(=O)CCCC2=O)C1=O	1.1	/	i	-26	106	-1	96
CS(=O)(=O)Nc1ccc(C(=O)NC2CCCC2)cc1	1.1	0.9	i	-12	79	-1	108
CCCOc1ccc(-c2cnc(SCC(N)=O)nc2N)cc1	0.99	-3.3	i	-52	84	-6	94
O=C1CC(c2ccccc2F)C2=C(COC2=O)N1 (configuration not stated)	1	/	i	50	77	-9	109
CCc1ccc(-c2nn(Cc3ccccc3)cc2/C=C/C(=O)O)cc1	1	-2.7	i	i	71	-5	102
Cc1ccc(NC(=O)Cn2nc(C)c(S(=O)(=O)N(C)C)c2C)cc1	0.91	/	i	/	/	-1	102
O=C(CC1Sc2ccccc2NC1=O)Nc1cccc(C(=O)O)c1 (configuration not stated)	1	-1.0	i	/	/	-5	105
COc1cccc(-c2onc3ccc(C4(C)OCCO4)cc23)c1	1	/	i	-7	77	3	102
N/C(=N\c1nc2c(c(=O)[nH]1)CCCC2)Nc1ccccc1	1	-1.6	i	14	140	-14	104
Cc1[nH]c2ccccc2c1C(=O)/C=C/c1ccccc1Cl	0.74	-1.1	i	20	165	-10	101
CCOC(=O)c1ccc(NC(=O)CN(Cc2ccc(Cl)cc2)S(C)(=O)=O)cc1	0.88	-1.7	i	17	133	-7	104
Cc1nc(-c2cccc(S(=O)(=O)N3CCCC(C)C3)c2)cs1 (configuration not stated)	1.1	27*	i	-49	117	-7	60
Cc1ccccc1C(=O)NC1CCN(Cc2nnnn2Cc2ccc(F)cc2)CC1	0.97	0.9	i	-117	216	-8	110
CC1(C)CC(=O)C=C(Nc2cc(-c3ccccc3)[nH]n2)C1	0.73	-0.7	i	/	/	-8	100
O=C1CC(c2ccco2)CC(O)=C1C=NCCN1CCN(C(=S)Nc2ccccc2)CC1 (configuration not stated)	0.98	/	i	/	/	/	93
CCCCC(=O)c1ccc(O)cc1O	1.1	-0.8	i	13	106	1	56
CN=C1CC(SC)=C1c1ccc(C)cc1	0.84	-2.6	i	-38	80	-3	99
Cc1cc(C)cc(OCc2nnc(SCC(=O)Nc3ccccc3)o2)c1	0.75	-0.9	i	50	147	-1	98
S=C(NCCCN1CCOCC1)Nc1ccc(Cl)cc1Cl	0.86	0.1	i	-4	71	-2	103
N#CC1=C(N)OC2=C(C(=O)CCC2)C1C1C=CCCC1 (configuration not stated)	0.77	-0.2	i	/	/	10	92
O=C(N/N=C/c1ccc(N2CCOCC2)cc1)C1CC1	0.94	/	i	/	/	7	98
Cc1nc(NCCc2ccc(S(N)(=O)=O)cc2)c2c(C)c(C)sc2n1	0.78	-0.8	i	60	146	-3	115
CCc1cc2c(=O)c(-c3cnn(-c4ccccc4)c3)coc2c(CN2CCOCC2)c1O	0.87	-1.8	i	0	127	-8	98
COc1ccc(N2C(=O)C3C4C=CC(C5CC45)C3C2=O)c([N+](=O)[O-])c1 (configuration not stated)	1	-1.5	i	17	102	-13	99
COc1ccc(C(Nc2ccccn2)c2oc(CO)cc(=O)c2O)cc1 (configuration not stated)	1.2	-0.5	i	27	93	1	96
CC1(C)CC2CC(C)(CN2C(=O)CCCN2C(=O)c3ccccc3C2=O)C1 (configuration not stated)	0.81	-0.2	i	/	/	9	97
O=C(Nc1ccc(SC(F)F)cc1)C12CCC(CC1)C2	1	-1.6	i	/	/	-11	104
NS(=O)(=O)c1ccc(CCNC(=O)/C=C/c2ccc([N+](=O)[O-])cc2)cc1	0.89	/	i	-7	89	-5	102
O=C(O)/C=C\C(=O)N1CCc2ccccc21	0.99	-1.5	i	/	/	2	100
O=C(Nc1ccn(-c2ccccc2)n1)c1ccc(Cl)cc1	0.97	-0.7	i	3	86	-3	110
CCN(CCCNC(=O)CSc1cc(=O)n(C)c2cc(Cl)ccc12)Cc1ccccc1	0.98	/	i	33	61	0	97
O=c1cc[nH]c2cc(Cl)ccc12	1.1	-1.1	i	43	125	-7	100
COc1cc(C(=O)N(Cc2cc3ccccc3[nH]c2=O)CC2CCCO2)cc(OC)c1OC (configuration not stated)	0.93	-0.9	i	-41	119	-6	60
COc1ccc(C2/C(=C(/O)c3ccccc3)C(=O)C(=O)N2c2ncccn2)cc1OC (configuration not stated)	0.99	-1.4	i	-11	120	-4	93
CCCCC(=O)Nc1cccc(-c2nn3c(C)nnc3s2)c1	0.85	-2.9	i	-23	117	-9	101
COc1ccccc1CC(=O)NN1C(=O)c2ccccc2C1=O	1	1.1	i	-9	147	4	30
CC1=C(C(=O)Nc2ccccc2)C(c2sccc2C)n2nnnc2N1 (configuration not stated)	/	-0.1	/	-14	136	-2	89
C=CCn1c(SCCOc2ccc(OC)cc2)nnc1C(NC(=O)c1ccc(OC)cc1)C(C)C (configuration not stated)	0.97	0.9	i	-11	84	-4	99
COc1ccc(Cl)cc1NC(=O)C/C(C)=N/NC(=O)Cc1ccccc1	1.2	/	i	/	/	-9	107
O=C(CN(C(=O)c1ccc(Cl)cc1)C1CCCCC1)Nc1ccc(Cl)c([N+](=O)[O-])c1	1.1	-0.8	i	-41	70	7	36
CCN(Cc1ccccc1)C(=O)COC(=O)CNS(=O)(=O)c1ccc(C)cc1	0.87	-1.2	i	0	169	5	99
Cc1cc(C)n(C(=O)c2ccc(S(=O)(=O)N3CCOCC3)cc2)n1	0.82	-0.9	i	23	83	0	68
O=C(NNC(=O)c1ccccc1-n1cccc1)c1cccc(Cl)c1	0.95	-1.5	i	17	88	-2	100
CC(C)COc1nc2ccccc2nc1C(C#N)C(=O)NC1CCCCC1 (configuration not stated)	0.91	-1.7	i	14	100	-5	96

Two entries from above, reformatted:
Each structure is followed by: HSV replic up primary fold	GALR2 ag	HSV replic up	Insulin prom inh	Insulin prom inh cell count	PKD1 inh	RGS16-Gao
CCN(Cc1ccccc1)C(=O)COC(=O)CNS(=O)(=O)c1ccc(C)cc1
    0.87	-1.2	i	0	169	5	99
Cc1cc(C)n(C(=O)c2ccc(S(=O)(=O)N3CCOCC3)cc2)n1
    0.82	-0.9	i	23	83	0	68

Remaining list, next part.
Structure	HSV replic up primary fold	GALR2 ag	HSV replic up	Insulin prom inh	Insulin prom inh cell count	PKD1 inh	RGS16-Gao
CC(C)(C)c1csc(NNC(=O)c2ccc(Br)cc2)n1	1.1	/	i	/	/	-1	103
Cc1onc(-c2ccccc2)c1C(=O)N/N=C/c1cc(Br)c(Br)o1	0.93	1.4	i	-14	111	-7	109
Cc1cc(C)nc(NS(=O)(=O)c2ccc(N3C(=O)C4C5C=CC(C5)C4C3=O)cc2)n1 (configuration not stated)	0.96	0.1	i	/	/	3	98
COc1ccc(S(=O)(=O)NC(C)C(=O)Nc2cccc([N+](=O)[O-])c2)cc1 (configuration not stated)	0.97	-0.9	i	3	77	-10	91
COc1cc2c(cc1OC)C(c1cccs1)NCC2 (configuration not stated)	0.94	-3.3	i	/	/	1	104
COc1ccc(-c2nc(-c3ccccc3)[nH]c(=O)c2C#N)cc1	0.84	-2.8	i	/	/	-6	100
O=C(O)c1ccc(Sc2ccccn2)c([N+](=O)[O-])c1	0.92	/	i	/	/	-4	90
O=C(NCc1cccs1)C1CCCN1C(=O)Nc1ccc(Cl)cc1 (configuration not stated)	0.98	/	i	/	/	0	106
COc1nc(Nc2cccc(C(F)(F)F)c2)nc(OC)n1	0.92	-0.4	i	0	78	4	92
Nc1nc(Nc2cccc3ccccc23)nc(C2CCCC2=O)n1 (configuration not stated)	/	-0.5	/	/	/	6	98
O=C(NC12CC3CC(CC(C3)C1)C2)N1CCN(C(=O)C2CCCO2)CC1 (configuration not stated)	0.87	-0.6	i	9	96	-8	96
COc1cc2c3nnc(-c4ccc(F)cc4)c-3cn(Cc3ccc(C)cc3)c2cc1OC	/	4.5	?	/	/	-2	113
CCCc1nc2c(C)cc(-c3nc4ccccc4n3C)cc2n1Cc1ccc(-c2ccccc2C(=O)O)cc1	1.2	/	i	/	/	/	103
Cc1ccc(S(=O)(=O)N/N=C2\C(=O)C3(C)CCC2C3(C)C)cc1 (configuration not stated)	1.1	/	i	10	90	-6	106
CC(C)(C)N(Cc1ccccc1)C(=O)c1ccc(Cl)cc1[N+](=O)[O-]	1.1	/	i	/	/	-2	99

Rewritten with values under each structure: part of the list above.
Order of values – HSV replic up primary fold, GALR2 ag, HSV replic up, Insulin prom inh, Insulin prom inh cell count, PKD1 inh, RGS16-Gao
COc1ccc(S(=O)(=O)NC(C)C(=O)Nc2cccc([N+](=O)[O-])c2)cc1 (configuration not stated)
    0.97, -0.9, i, 3, 77, -10, 91
COc1cc2c(cc1OC)C(c1cccs1)NCC2 (configuration not stated)
    0.94, -3.3, i, /, /, 1, 104
COc1ccc(-c2nc(-c3ccccc3)[nH]c(=O)c2C#N)cc1
    0.84, -2.8, i, /, /, -6, 100
O=C(O)c1ccc(Sc2ccccn2)c([N+](=O)[O-])c1
    0.92, /, i, /, /, -4, 90
O=C(NCc1cccs1)C1CCCN1C(=O)Nc1ccc(Cl)cc1 (configuration not stated)
    0.98, /, i, /, /, 0, 106
COc1nc(Nc2cccc(C(F)(F)F)c2)nc(OC)n1
    0.92, -0.4, i, 0, 78, 4, 92
Nc1nc(Nc2cccc3ccccc23)nc(C2CCCC2=O)n1 (configuration not stated)
    /, -0.5, /, /, /, 6, 98
O=C(NC12CC3CC(CC(C3)C1)C2)N1CCN(C(=O)C2CCCO2)CC1 (configuration not stated)
    0.87, -0.6, i, 9, 96, -8, 96
COc1cc2c3nnc(-c4ccc(F)cc4)c-3cn(Cc3ccc(C)cc3)c2cc1OC
    /, 4.5, ?, /, /, -2, 113
CCCc1nc2c(C)cc(-c3nc4ccccc4n3C)cc2n1Cc1ccc(-c2ccccc2C(=O)O)cc1
    1.2, /, i, /, /, /, 103
Cc1ccc(S(=O)(=O)N/N=C2\C(=O)C3(C)CCC2C3(C)C)cc1 (configuration not stated)
    1.1, /, i, 10, 90, -6, 106
CC(C)(C)N(Cc1ccccc1)C(=O)c1ccc(Cl)cc1[N+](=O)[O-]
    1.1, /, i, /, /, -2, 99

Next results
Structure	HSV replic up primary fold	GALR2 ag	HSV replic up	Insulin prom inh	Insulin prom inh cell count	PKD1 inh	RGS16-Gao
CN/S(=N/S(=O)(=O)c1ccccc1)c1ccc(C)cc1 (configuration not stated)	1.1	-2.7	i	4	116	-9	99
COc1ccc2nc(-c3ccccc3)[nH]c2c1	1	0.3	i	-310	61	-12	105
CCOC(=O)Cc1nnc(Nc2cc(C)ccc2C)c2ccccc12	1	/	i	/	/	1	99
O=C(CSc1cccc2cccnc12)N/N=C/c1ccc(F)cc1	1	/	i	/	/	/	104
Cc1ccc(C(=O)Nc2cccc(C(=O)NCc3ccco3)c2)cc1	0.9	-3.1	i	-8	118	-1	100
Cc1nnc(N(CCC#N)CCC#N)s1	1.1	-2.0	i	-16	94	-5	103
O=C(COC(=O)c1ccc(S(=O)(=O)Nc2ccccc2)cc1)NCCN1C(=O)CSC1=O	0.92	-2.5	i	36	62	-9	74
CC(=O)NC(C(=O)c1ccccc1)C(=O)c1ccccc1	0.99	0.0	i	40	124	-4	108
COc1cc2c(cc1NC(=O)c1cccc([N+](=O)[O-])c1)oc1ccccc12	0.6	-2.2	i	-19	90	3	95
COc1ccc(-n2ncc3c(NCc4cccs4)ncnc32)cc1	0.66	0.9	i	32	84	-7	110
O=C1CCCC2=C1C(c1ccc(O)c(O)c1)c1c(ccc3ncccc13)N2 (configuration not stated)	0.99	/	i	18	179	4	131
N#CCC(CNc1ncc(C(F)(F)F)cc1Cl)OC(=O)c1c(F)cccc1F (configuration not stated)	0.78	-1.5	i	/	/	-13	/
Clc1ccccc1Sc1cnc2ccccc2n1	1.1	-0.3	i	-11	113	3	101
O=C(CCc1nnc(CCCc2ccccc2)o1)N1CCCCCC1	0.97	/	i	/	/	4	106
O=C(CC1Nc2c3ccccc3nc(=S)n2C1=O)NC1CCCCC1 (configuration not stated)	0.9	/	i	/	/	2	98
